D2 potentiator: potentiates the human D2 dopamine receptor allosterically. AID 624464. P14416. 360,000 compounds, 0.23% hits. potentiation, % (no concentration beside the values). DiscoveRx D2 beta-arrestin cells, luminescence, 90 min; 100% = 57 uM dopamine signal; active = potentiation of 50% or more; inconclusive = 30% to 50%; inactive = 30% or less;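 note: compound concentration not given in the record; tested on top of an EC20 dose of dopamine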
Target sequence (P14416 whole entry, looked up): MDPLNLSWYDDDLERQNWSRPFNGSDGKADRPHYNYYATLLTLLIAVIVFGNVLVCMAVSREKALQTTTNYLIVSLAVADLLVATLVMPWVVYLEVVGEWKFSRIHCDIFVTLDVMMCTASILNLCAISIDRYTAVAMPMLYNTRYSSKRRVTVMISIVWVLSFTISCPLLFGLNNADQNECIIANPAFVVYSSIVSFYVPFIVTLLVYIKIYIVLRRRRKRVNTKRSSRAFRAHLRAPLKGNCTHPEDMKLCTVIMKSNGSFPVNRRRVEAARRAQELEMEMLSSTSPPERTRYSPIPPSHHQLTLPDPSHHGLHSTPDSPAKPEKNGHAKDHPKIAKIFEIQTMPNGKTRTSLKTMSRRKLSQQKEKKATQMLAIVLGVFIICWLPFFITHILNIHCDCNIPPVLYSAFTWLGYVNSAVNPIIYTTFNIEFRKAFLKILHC
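PathHunter beta-arrestin assay in DiscoveRx D2 cells. Compounds were added with an EC20 of dopamine (50 nM final) for 90 min at 37 deg C. Luminescence was read 1 h after detection reagent, with 57 uM dopamine as the EC100 control.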
CtBP-E1A inh: CtBP/E1A binding inhibition; AlphaScreen GST-E1A/His-CtBP binding, 1536-well; active compounds read low; control for the full effect not named in the record; activity change, % (test concentration not listed); 340,000 compounds, 0.49% hits; AID 651724; in the data active means activity change below about -65%; inconclusive means about -30% to -65%; inactive means above about -30%; note: % is set by controls: 0 for no effect and ±100 for the full control effect
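Steps: dispense buffer (Tris pH 8.0, NaCl 300 mM, TCEP 1 mM, BSA, Tween 20); add 5X protein mix (GST-E1A, His-CtBP, 125 nM each); pin 23 nL compound; 2 h at 37 °C, dark; add 5X beads (50 ug/mL); 1 h; read.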
TRPML1 blocker: human mucolipin-1 channel inhibition; activity change, negative = inhibition, % (no concentration beside the values); AID 624415; TRPML1-inducible cells, Ca2+ dye fluorescence, FDSS; active compounds read low; inhibition of EC80 agonist-evoked calcium signal; 390,000 compounds, 0.02% hits; in the data active means activity change below about -50%; inconclusive means about -30% to -50%; inactive means above about -30%;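 note: stimulus is agonist 54-4 at its EC80 concentration; % is set by controls: 0 for no effect and ±100 for the full control effect; compound concentration not given in the record; the text of the record puts the active cut at -80%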
Target sequence (Q9GZU1 whole entry, looked up): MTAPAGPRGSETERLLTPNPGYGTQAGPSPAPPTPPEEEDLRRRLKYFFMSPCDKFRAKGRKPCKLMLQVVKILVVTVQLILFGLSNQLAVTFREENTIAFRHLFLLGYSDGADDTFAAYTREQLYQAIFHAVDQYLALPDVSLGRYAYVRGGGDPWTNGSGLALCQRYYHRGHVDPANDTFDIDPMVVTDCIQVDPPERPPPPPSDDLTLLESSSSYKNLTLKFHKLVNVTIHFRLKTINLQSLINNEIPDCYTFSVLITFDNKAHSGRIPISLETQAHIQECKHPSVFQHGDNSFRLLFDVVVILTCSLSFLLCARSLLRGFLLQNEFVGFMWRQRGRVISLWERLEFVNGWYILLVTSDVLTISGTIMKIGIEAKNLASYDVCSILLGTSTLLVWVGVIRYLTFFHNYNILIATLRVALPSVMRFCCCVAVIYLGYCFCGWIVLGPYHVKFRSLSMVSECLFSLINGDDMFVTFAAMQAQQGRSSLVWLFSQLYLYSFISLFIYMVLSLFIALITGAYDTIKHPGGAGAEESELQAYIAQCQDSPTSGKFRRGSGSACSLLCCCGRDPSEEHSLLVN
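TRPML1-DL cells, Tet-induced overnight (~16 h, 37 °C) at 1,500 cells/well, were loaded with Ca8 no-wash dye plus quencher for 45-90 min at room temperature. Compounds were pinned during FDSS kinetic reading; agonist 54-4 at EC80 (4 uM final) then added.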
TRPV1 potentiator: enhances activation of the human vanilloid receptor TRPV1; potentiation, % at 8.33 µM; Q8NER1; 320,000 compounds, 0.02% hits; TRPV1-expressing cells, Fluo-8 calcium influx, capsaicin EC20 potentiation; host cell line not named in the record; control for the full effect not named in the record; active means potentiation above 80%; inconclusive means 30% to 80%; inactive means below 30%; note: 0% is about no effect
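Cells expressing TRPV1 were dye-loaded with Fluo-8 and read kinetically: 10 s baseline, 3 min after compound (agonist portion), then 2 min after EC20 capsaicin (allosteric enhancer portion). Calcium-bound dye fluorescence at 480/520 nm.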
Six1-Eya2 blk: blocks human Six1 binding to Eya2; AlphaScreen GST-Six1/His-Eya2 binding, biochemical; active compounds read low; control for the full effect not named in the record; Q15475+O00167; activity change, % (concentration not given with the values); AID 651725; 360,000 compounds, 0.56% hits; in the data active = activity change below about -65%; inconclusive = about -30% to -65%; inactive = above about -30%; note: % is set by controls: 0 for no effect and ±100 for the full control effect
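Compounds are tested against tagged Six1 and Eya2 proteins bridged by glutathione donor and nickel acceptor beads; after a one-hour incubation at 37 °C without light, AlphaScreen emission is recorded.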
TRPML1 agonist: activates the human TRPML1 channel; TRPML1-expressing cells, Ca2+ dye fluorescence, FDSS; host cell line not named in the record; reference of the full effect not given here; 410,000 compounds, 0.12% hits; AID 624414; Q9GZU1; activation, % (concentration not given with the values); in the data active = activation above about 50%; inconclusive = about 30% to 50%; inactive = below about 30%; note: 0% is about no effect; the text of the record puts the active cut at 80%
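Agonist activity was taken from a 110 s kinetic Ca2+ dye read on the FDSS after pinning compounds onto TRPML1-DL cells. The cells were seeded at 1,500/well with Tet inducer, incubated about 16 h, then dye-loaded at room temperature.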
Starred values were filed as active, the others as inactive; ? = inconclusive; . = not tested or not shown.

SMILES	D2 potentiator	CtBP-E1A inh	TRPML1 blocker	TRPV1 potentiator	Six1-Eya2 blk	TRPML1 agonist
C[C@H]1CN=C2N(CCNC(=O)CCC3CCCCC3)[C@H](Cc3ccc(O)cc3)CN21	-29	1	-3	?	-5	-1.0
CC1(C)Cc2c(sc(NC(=O)C(=O)N3CCOCC3)c2C(N)=O)CO1	-4	-24	-4	12	-9	-0.4
COc1ccc(CC(=O)NNC(=O)c2cc(C)[nH]n2)cc1	-3	-5	9	-7	9	1.2
COc1ccc(C(=O)NNC(=O)C2CCCO2)cc1 (stereo unspecified)	-4	9	.	-8	0	.
COc1ccccc1CNC(=O)C1CCN(S(=O)(=O)c2ccc3c(c2)NC(=O)CO3)CC1	-2	.	7	?	-6	0.8
C[C@H](CO)N1C[C@H](C)[C@@H](CN(C)Cc2ccc(C(=O)O)cc2)Oc2ccc(NS(C)(=O)=O)cc2C1=O	-40	-18	4	.	10	-0.2
CCOC(=O)c1cnn(CCOC(=O)c2ccc(F)cc2)c1NC(=O)c1ccc(F)cc1	3	-17	36	2	0	-0.6
CN(C(=O)COC(=O)CSc1ccc(C(N)=O)cc1[N+](=O)[O-])C1CCS(=O)(=O)C1 (stereo unspecified)	-18	0	-23	-7	12	0.6
O=C(NCC1CCCO1)c1ccc(COc2ccccc2)o1 (stereo unspecified)	2	0	-7	0	2	0.1
O=C(CC1Sc2ccccc2NC1=O)c1ccc(Br)cc1 (stereo unspecified)	-9	4	0	4	3	0.2
Cn1cc(C(=O)NC2CCCCC2)c(=O)c2cc(S(=O)(=O)N3CCCC3)ccc21	-4	7	-8	-19	-1	-1.0
O=C(NC(Cc1ccc(F)cc1)C(=O)O)c1ccccc1 (stereo unspecified)	11	8	8	6	7	-0.6
CC1(C(=O)NCCC(F)(F)F)Cc2c(-c3cccc(C(F)(F)F)c3)ccnc2O1 (stereo unspecified)	-7	-3	.	.	2	-1.0
COc1cccc(CC(=O)OC(C)C(=O)NCc2ccc3c(c2)OCO3)c1 (stereo unspecified)	3	6	-2	-12	-2	0.9
O=C(N/N=C/c1ccc(F)cc1)c1cccc(NC(=O)c2ccccc2Cl)c1	-5	-2	-1	5	-10	0.8
Brc1ccccc1-n1nnc(-c2cnc3ccccc3c2)n1	4	-7	?	.	-7	1.8
N#Cc1c(/N=C/c2ccc(-c3ccccc3C(=O)O)o2)sc2c1CCCC2	14	4	-25	-1	-17	-1.8
CCC(=O)Nc1ccc2nc(C)n(Cc3ccccc3Cl)c(=O)c2c1	7	-2	3	21	-8	-0.7
COc1ccccc1-c1cc(C(F)(F)F)n2ncc(S(=O)(=O)c3ccccc3)c2n1	26	-7	0	5	6	2.9
Cc1ccc(-c2nnc(COC(=O)c3cc(=O)[nH]c4ccccc34)o2)cc1	?	-1	-1	1	-1	3.2
Cc1ccnc(NC(=O)Cc2ccc([N+](=O)[O-])cc2)c1	-7	8	8	3	-4	-0.8
COc1cc(/C=C/C(=O)c2ccc(F)cc2)cc(OC)c1OC	-17	-1	7	5	-1	-1.0
Cc1cc2ccccc2n2c(SCC(=O)Nc3ccc(S(=O)(=O)N4CCCCC4)cc3)nnc12	-21	-3	6	6	-14	1.1
Cc1cc(/C=C(\C#N)C(=O)O)c(C)n1C1CC1	-19	4	25	-1	-7	0.2
Cc1ccc(C(=O)N2CCN=C2SCc2ccc([N+](=O)[O-])cc2)cc1	-7	-7	64	-6	-11	1.7
CCCCNC(=O)CC1C(=O)N(Cc2ccccc2)C(C)c2nc3ccccc3n21 (stereo unspecified)	-9	7	20	-18	1	0.6
O=C(NCC1CCCO1)c1cc(-c2ccncc2)nc2ccc(S(=O)(=O)N3CCOCC3)cc12 (stereo unspecified)	-24	-8	8	3	-9	-1.0
CCOC(=O)CSc1nc(C)c2ccc(C)cc2n1	-2	1	-5	-4	20	2.9
O=C(O)C1C(c2ccccc2)C(C(=O)OCc2ccco2)C1c1ccccc1 (stereo unspecified)	-3	-2	-1	-1	-2	0.0
Cc1nc(-c2cccc(NS(=O)(=O)c3ccc4ccccc4c3)c2)cs1	4	-8	-15	0	-2	0.1
COc1ccc([N+](=O)[O-])cc1NC(=O)CCN1CCN(CCO)CC1	-18	4	31	1	2	2.3
COC(=O)/C(=N/Nc1ccccc1OC)N1CCCc2ccccc21	-4	-5	-2	3	-12	0.7
Cc1ccc(N(CN2C(=O)NC(C)(C)C2=O)CN2C(=O)NC(C)(C)C2=O)cc1	-7	2	14	-5	4	0.2
CCOC(=O)CNC(=O)c1cccnc1	-12	-9	-2	-38	15	-0.2
Cc1cccc(C)c1NC(=O)C(C)c1ccc(-c2ccccc2)c(F)c1 (stereo unspecified)	-2	4	12	9	-2	0.1
CC1CCCN(CCCNC(=O)c2ccc(N3CCCC3=O)cc2)C1 (stereo unspecified)	-32	7	12	4	-1	0.0
COc1cc(SC)ccc1C(=O)OCC(=O)N1CC(=O)Nc2ccccc21	-8	0	3	.	3	0.7
Cc1ccc(C(=O)N2CCN(c3cccc(C)c3C)CC2)cc1S(=O)(=O)N1CCOCC1	1	-1	6	-16	-5	2.3
O=C(NC1CC1)c1cccc(NC(=O)C2CCC2)c1	-8	7	-4	.	7	0.8
COc1ccccc1NC(=O)CC(c1ccc(OC(C)C)cc1)c1ccccc1OC (stereo unspecified)	-6	9	8	0	-1	1.5

4 compounds already listed, sorted by the number in Six1-Eya2 blk, lowest first.
structure	Six1-Eya2 blk
C[C@H]1CN=C2N(CCNC(=O)CCC3CCCCC3)[C@H](Cc3ccc(O)cc3)CN21	-5
CCCCNC(=O)CC1C(=O)N(Cc2ccccc2)C(C)c2nc3ccccc3n21 (stereo unspecified)	1
O=C(NC1CC1)c1cccc(NC(=O)C2CCC2)c1	7
CCOC(=O)CNC(=O)c1cccnc1	15

Continuation:
SMILES	D2 potentiator	CtBP-E1A inh	TRPML1 blocker	TRPV1 potentiator	Six1-Eya2 blk	TRPML1 agonist
CCc1ccccc1NCc1cc(=O)oc2cc(C)ccc12	0	4	-11	10	5	-0.2
COc1cc(C)c(C)cc1S(=O)(=O)n1c(C)nc2ccccc21	-1	9	14	-4	1	-0.2
CCCCOc1ccc(N2CC(C(=O)NCc3ccco3)CC2=O)cc1 (stereo unspecified)	-4	-1	6	-5	6	0.3
CCCCC(=O)NC(=S)NNC(=O)CC	-5	-2	-4	30	-3	-0.3
COc1ccc2nc(SCC(=O)N(C)CC(=O)Nc3ccc(F)cc3)[nH]c2c1	-7	0	12	4	-13	1.1
CC(C)(C)C(=O)O/N=C(\N)Cc1ccc(-c2csnn2)cc1	-3	13	-6	-3	0	-0.7
O=c1[nH]c2ccc(Cl)cc2c(-c2ccccc2)c1N1CCN(CCO)CC1	-8	-2	2	-16	-2	-0.3
Cc1ccc(N(Cc2ccc([N+](=O)[O-])cc2)C(=O)c2ccco2)cc1	-3	-6	31	.	-18	1.1
COc1ccc(CCNC(=O)c2c(-c3ccccc3)noc2C)cc1OC	-8	9	-2	?	-2	-0.2
COc1ccc2cc(C(=O)Nc3ccc(O)cc3)sc(=O)c2c1OC	-31	23	-28	-11	-30	-0.5
COc1cc(C(=O)O/N=C(\N)c2ccccn2)cc(OC)c1OC	12	.	9	7	1	-0.5
O=C(/C=C/c1cccc(F)c1)NCCCn1ccnc1	-9	-13	1	14	-20	-0.8
CCOC(=O)Cc1csc(NC(=O)c2c(-c3ccccc3)noc2C)n1	-4	1	-12	-7	-1	1.1
O=C(NCc1ccco1)/C(=C\C=C\c1ccccc1)NC(=O)c1ccccc1Br	1	-3	7	-2	1	0.8
CCOC(=O)c1ccc(-n2cnc(-c3ccc([N+](=O)[O-])cc3)c2)cc1	4	1	.	.	-5	-0.2
CCOC(=O)C1CCN(C(=O)c2ccccc2NS(=O)(=O)c2cc(C)ccc2C)CC1	-6	1	-5	-17	-11	-0.4
CN1CCc2c(OCC(=O)N3N=C(c4cccs4)CC3c3ccc(F)cc3)cccc2C1=O (stereo unspecified)	-8	-6	-3	-1	-15	0.2
Cc1oc2cc(O)ccc2c(=O)c1Oc1ccccc1	-17	2	-9	-3	-9	-0.9
Brc1ccc(-c2csc(N3CCOCC3)n2)cc1	-12	1	1	-9	-3	3.5
CCOc1ccc2c(c1)sc(=NC(=O)C1CC1)n2C	-6	5	12	18	-3	0.5

Structures listed so far that have a cyano group:
SMILES	D2 potentiator	CtBP-E1A inh	TRPML1 blocker	TRPV1 potentiator	Six1-Eya2 blk	TRPML1 agonist
N#Cc1c(/N=C/c2ccc(-c3ccccc3C(=O)O)o2)sc2c1CCCC2	14	4	-25	-1	-17	-1.8
Cc1cc(/C=C(\C#N)C(=O)O)c(C)n1C1CC1	-19	4	25	-1	-7	0.2

Next part
SMILES	D2 potentiator	CtBP-E1A inh	TRPML1 blocker	TRPV1 potentiator	Six1-Eya2 blk	TRPML1 agonist
Cc1sc2ncnc(N3CCC(C(=O)N(CC(C)C)c4nc5ccccc5s4)CC3)c2c1C	-7	9	-4	-2	1	0.1
COC(=O)c1c(NC(=O)C2CCCCC2C(=O)O)sc2c1CCCCC2 (stereo unspecified)	2	-4	-1	-1	-22	-0.1
COc1ccc(NC(=O)c2c(Cl)nc3ccccn23)cc1	5	9	-4	-8	8	0.3
O=C(O)c1cccc(-n2cccc2/C=C2/NC(=O)N(Cc3ccccc3F)C2=O)c1	9	6	-2	9	-20	2.0
COC(=O)Cc1ccc(N(Cc2ccccc2F)S(=O)(=O)c2ccc(Br)cc2)cc1	-7	.	31	8	13	3.4
CCc1ccc(N(CC(=O)NC2CCCC2)C(=O)CCC(=O)Nc2ccccn2)cc1	-9	-1	-15	-1	8	0.2
Cc1ccccc1OCC(=O)NNC(=S)NC(=O)c1ccccc1[N+](=O)[O-]	-25	-4	11	13	2	3.2
O=S(=O)(CC(O)COc1ccc(Br)cc1)c1ccccc1 (stereo unspecified)	-5	15	17	0	6	3.2
O=S(=O)(Nc1ccc(N2CCCCC2)cc1)c1ccc(F)cc1	-5	-19	-16	-7	-23	4.6
CCC(C)Oc1cccc(OCCCCN2C(=O)NC(C)(C)C2=O)c1 (stereo unspecified)	-1	3	-1	-19	3	1.4
COC(=O)C1=C(C)Nc2nc(SCc3ccccc3)[nH]c(=O)c2C1c1cccs1 (stereo unspecified)	-10	-21	2	25	4	1.6
COc1cccc(NC2SC(=O)N(c3ccccc3)C2=O)c1 (stereo unspecified)	-9	3	1	-8	-1	-0.2
CC(C(=O)NCc1ccccc1)N1C(=O)c2ccccc2C1=O (stereo unspecified)	-1	11	11	-2	0	-0.5
O=C1CCC(C(=O)N2CCCCO2)CN1Cc1cccc(F)c1 (stereo unspecified)	-6	5	7	-6	6	-0.3
COc1ccc(NC(=O)CCC(=O)OCC(=O)c2ccc(Oc3ccc([N+](=O)[O-])cc3)cc2)cc1	-23	-2	-1	-20	8	2.5
CC1(CCc2ccccc2)NC(=S)N(c2ccccc2)N1 (stereo unspecified)	-11	0	-10	1	11	0.1

Exported with two lines to a compound: 2 of the compounds above
The line under a structure holds: D2 potentiator	CtBP-E1A inh	TRPML1 blocker	TRPV1 potentiator	Six1-Eya2 blk	TRPML1 agonist
CCc1ccc(N(CC(=O)NC2CCCC2)C(=O)CCC(=O)Nc2ccccn2)cc1
    -9	-1	-15	-1	8	0.2
O=S(=O)(CC(O)COc1ccc(Br)cc1)c1ccccc1 (stereo unspecified)
    -5	15	17	0	6	3.2

Bioassay records deposited in PubChem BioAssay by National Center for Advancing Translational Sciences (NCATS).
